RecA splice inh = inhibitors of M. tuberculosis RecA intein splicing. P9WHJ3. cell-free RecA intein splicing, fluorescence. inhibition, %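 (about 9 µM by stock and volumes)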. 0.75% of 290,000 active; in the data active = inhibition above about 30%; inconclusive = no clear call, values can overlap the other calls;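 also: 0% = vehicle wells and 100% = reference inhibitor control wells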
Target sequence (P9WHJ3 whole entry, looked up, canonical isoform): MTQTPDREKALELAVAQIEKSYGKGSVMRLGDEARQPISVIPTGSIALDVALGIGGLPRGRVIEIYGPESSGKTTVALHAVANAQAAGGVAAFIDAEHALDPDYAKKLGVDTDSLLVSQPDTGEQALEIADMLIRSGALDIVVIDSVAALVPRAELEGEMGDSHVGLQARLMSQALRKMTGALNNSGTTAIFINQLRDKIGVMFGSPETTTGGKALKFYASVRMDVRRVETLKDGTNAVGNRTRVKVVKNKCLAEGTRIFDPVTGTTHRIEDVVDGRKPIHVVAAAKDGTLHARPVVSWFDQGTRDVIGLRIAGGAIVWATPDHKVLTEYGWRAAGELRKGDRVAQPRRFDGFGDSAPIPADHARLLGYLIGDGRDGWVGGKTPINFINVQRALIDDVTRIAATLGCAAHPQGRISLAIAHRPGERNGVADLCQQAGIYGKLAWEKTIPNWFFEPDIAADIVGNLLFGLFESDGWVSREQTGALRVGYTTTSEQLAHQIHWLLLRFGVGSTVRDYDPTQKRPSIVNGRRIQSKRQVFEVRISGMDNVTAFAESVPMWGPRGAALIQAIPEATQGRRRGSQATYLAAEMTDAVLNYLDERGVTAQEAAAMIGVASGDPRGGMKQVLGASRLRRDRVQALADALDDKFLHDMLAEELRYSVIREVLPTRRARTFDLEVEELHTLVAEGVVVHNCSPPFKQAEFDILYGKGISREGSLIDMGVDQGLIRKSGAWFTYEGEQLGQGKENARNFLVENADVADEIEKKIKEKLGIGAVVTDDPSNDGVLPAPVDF
Arbovirus anti = antivirals against arbovirus infection; arbovirus infection cell-based antiviral screen; inhibition, % at 10 µM; 0.37% of 200,000 active; AID 1251;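 active = inhibition from about 30%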;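 also: bluetongue infection of BSR cells; cell survival read as ATP light after 72 h; 0% = infected wells without compound and 100% = uninfected wells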
Mtb betalactam = beta-lactam sensitization of Mtb H37Rv. AID 434955. M. tuberculosis H37Rv growth with meropenem, percent inhibition; hits of this screen are not shown here. 0.27% of 330,000 active. inhibition, % at 25 µM;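 active = about 74% or more and at least 40 points above the plate without the antibiotic, then above 30% in a dose series; inconclusive = first-round hits that could not be retested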;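 also: growth measured after seven days incubation then overnight dye step; 0% = bacteria only wells and 100% = bacteria with antibiotic; twin plates without the antibiotic show which effects depend on it; some results filed as inactive read as strong as hits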
YopH PTP inh = YopH (Yersinia) phosphatase inhibition; fluorescence Ex485/Em525; inhibition, %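 (about 10 µM by stock and volumes)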; 0.16% of 140,000 active;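 active = inhibition of 50% or more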;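 also: controls were vehicle for no effect and minimum signal wells for full effect; inactives centre near -20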
Mtb H37Rv = M. tuberculosis H37Rv growth inhibitors, H37Rv strain (AID 1626); M. tuberculosis H37Rv growth inhibition; higher % means a stronger effect; 0.95% of 220,000 active; inhibition, % at 10 µM, or IC50 in µM where a hit was titrated;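 active = confirmed in a dose series; inconclusive = inhibition above 80% but not taken into the dose series; inactive = below 80% or under 30% at every dose of the series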;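 also: bacteria incubated seven days before Alamar blue readout; 0% = bacteria only wells and 100% = bacteria with antibiotic wells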
Arbovirus anti repeat = also measured in Arbovirus anti; calls as there; inhibition, %; measured here: 10K subset replicate screen; many hits read low in the repeat;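 first of two repeat runs on a subset; 0% = infected and 100% = uninfected wells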
Starred values were filed as active, the others as inactive; ? = inconclusive; nt = no result given. Not all compounds are listed; the hit share may differ from the screen's.

SMILES	RecA splice inh	Arbovirus anti	Mtb betalactam	YopH PTP inh	Mtb H37Rv	others
O=C(Nc1ccc2c(c1)OCO2)c1cc2n(n1)C(C(F)(F)F)CC(c1ccccc1)N2 (stereo unspecified)	3.0	-11	11	-51	-3%
CCOC(=O)CCC(=O)N1CCNC(=O)C1	-0.5	8	0	-1	-1%
CC(=O)N1c2ccc(S(=O)(=O)N3CCC(C(=O)Nc4ccccn4)CC3)cc2CC1C (stereo unspecified)	0.2	nt	5	nt	nt
O=C(Nc1c(Cl)ccc2nsnc12)c1cccnc1	-2.7	-5	-5	-8	18%
O=C(COC(=O)Cc1c(Cl)cccc1Cl)NCCC1=CCCCC1	1.1	2	5	-29	27%
O=C1CCC(c2ccccc2)c2ccccc21 (stereo unspecified)	1.1	nt	1	nt	nt
CN(Cc1ccccn1)C(=O)CC1C(=O)NCCN1Cc1ccc(F)cc1Cl (stereo unspecified)	2.5	nt	1	nt	nt
CCc1ccccc1OCC(=O)OCC(=O)c1c(N)n(C)c(=O)n(C)c1=O	0.6	-2	2	nt	1%
Nn1c(COc2ccccc2F)nnc1SCC(=O)NC1CCCC1	-0.4	nt	-15	nt	nt
COc1ccnc(Oc2ccccc2)c1C#N	-1.8	-1	5	-27	6%
O=S(=O)(c1ccccc1)N1CCCN(S(=O)(=O)c2ccccc2)CC1	1.5	nt	-7	nt	nt
CCCCc1nc(SCCN2CCOCC2)c2c(=O)n(C)c(=O)n(C)c2n1	3.1	2	4	nt	2%
COc1ccc(-c2cc(C(=O)OCC(=O)Nc3ccc4c(c3)OCO4)c3ccccc3n2)cc1	-0.9	-1	-3	-20	-5%
COc1cc(C(=O)NNC(=O)c2ccc(NC(=O)C(C)(C)C)cc2)cc(OC)c1OC	-3.6	1	-8	nt	-3%
COc1ccc(-c2csc3ncnc(N4CCN(c5cccc(Cl)c5)CC4)c23)cc1	7.1	nt	?	nt	nt

Among those listed so far, these have a carbonyl joined to an NH by a bond outside any ring.
SMILES	RecA splice inh	Arbovirus anti	Mtb betalactam	YopH PTP inh	Mtb H37Rv	others
O=C(Nc1ccc2c(c1)OCO2)c1cc2n(n1)C(C(F)(F)F)CC(c1ccccc1)N2 (stereo unspecified)	3.0	-11	11	-51	-3%
CC(=O)N1c2ccc(S(=O)(=O)N3CCC(C(=O)Nc4ccccn4)CC3)cc2CC1C (stereo unspecified)	0.2	nt	5	nt	nt
O=C(Nc1c(Cl)ccc2nsnc12)c1cccnc1	-2.7	-5	-5	-8	18%
O=C(COC(=O)Cc1c(Cl)cccc1Cl)NCCC1=CCCCC1	1.1	2	5	-29	27%
Nn1c(COc2ccccc2F)nnc1SCC(=O)NC1CCCC1	-0.4	nt	-15	nt	nt
COc1ccc(-c2cc(C(=O)OCC(=O)Nc3ccc4c(c3)OCO4)c3ccccc3n2)cc1	-0.9	-1	-3	-20	-5%
COc1cc(C(=O)NNC(=O)c2ccc(NC(=O)C(C)(C)C)cc2)cc(OC)c1OC	-3.6	1	-8	nt	-3%

Further records:
SMILES	RecA splice inh	Arbovirus anti	Mtb betalactam	YopH PTP inh	Mtb H37Rv	others
O=C(OCC(=O)c1cccs1)c1ccc([N+](=O)[O-])o1	-5.0	4	97	nt	1%
Cc1cc(Cl)n2c(nc3ccccc32)c1C#N	5.1	10	nt	nt	-11%
O=C(C(Cc1ccccc1)n1cccc1)N1CCCCCC1 (stereo unspecified)	0.8	1	-3	2	-5%	Arbovirus anti repeat=0
CC(C)N(C(=O)COC(=O)[C@@H]1CC(O)CN1S(=O)(=O)c1ccccc1[N+](=O)[O-])C(C)C (stereo partly specified)	-9.8	-3	7	-20	0%
CCc1ccc(N2C(=O)CC(N(CC3CCCO3)C(=O)/C=C/C(=O)O)C2=O)cc1 (stereo unspecified)	-2.8	1	-7	-19	-4%
CCCn1c(CNS(=O)(=O)c2ccc(C)cc2)nc2ccccc21	-0.9	-2	1	-3	1%	Arbovirus anti repeat=1
Cc1cc(NC(=O)Cn2ccsc2=N)c([N+](=O)[O-])cc1C	-1.0	7	-4	nt	-4%
CCOC(=O)CNC(=O)C1COc2ccccc2O1 (stereo unspecified)	0.7	nt	-4	nt	-6%
CS(=O)(=O)c1ccc2nc(NC(=O)C3CC(=O)N(c4ccccc4)C3)sc2c1 (stereo unspecified)	-6.8	nt	1	nt	nt
COc1ccc(NC(=S)N(CCc2c(C)[nH]c3ccccc23)Cc2ccco2)cc1	0.5	6	-2	-31	nt
COCCN1C(=O)c2cc(C(=O)Nc3ccc(C)c(F)c3)ccc2C1Nc1ccc(C)c(F)c1 (stereo unspecified)	1.7	-2	4	-26	-2%
CCCCC(=O)Nc1nc(C)c(C(C)=O)s1	-1.9	-2	-7	-36	8%	Arbovirus anti repeat=1
COc1ccccc1C(=O)NCC(c1cccnc1)N(C)C (stereo unspecified)	nt	2	-5	3	-1%
Cc1cc(Cl)c(S(=O)(=O)NC2CCCC2)cc1OCC(N)=O	0.0	nt	-5	nt	nt
COc1cc(CCC(=O)NCc2ccc(Cl)cc2)cc(OC)c1OC	0.0	nt	-6	nt	nt
O=C(CCNc1n[nH]c(=O)[nH]c1=O)N1CCOCC1	1.1	6	-8	-25	-5%
Cc1ccc(NC(=O)c2cnc(N3CCN(c4ccccn4)CC3)c3ccccc23)c(Br)c1	nt	-4	98	nt	?
Cc1ccc(-n2c(Cc3cccs3)nnc2SCC(=O)Nc2ccc(S(N)(=O)=O)cc2)cc1	8.7	5	0	-50	-3%
Cc1ccc(-c2nnn(CC(=O)N(CC(=O)NCC3CCCO3)c3ccc(F)c(Cl)c3)n2)o1 (stereo unspecified)	nt	8	1	-24	-4%
CN(C(=O)COC(=O)c1cc(S(=O)(=O)N2CCCCC2)ccc1N1CCOCC1)C1CCS(=O)(=O)C1 (stereo unspecified)	-1.4	nt	2	nt	nt
O=C(Nc1nncs1)c1ccc(Br)c(S(=O)(=O)N2CCCC2)c1	-0.2	0	-14	-21	-12%
COc1ccc2cc(C#N)c(NC(C)C)nc2c1	-2.8	5	-6	-17	-1%
CCOC(=O)c1sc2nc(C)nc(N3CCN(c4ncccn4)CC3)c2c1C	5.6	0	32	nt	19%
CCn1c(SCC(=O)Nc2nc3ccccc3s2)nnc1-c1ccc(OC)cc1	-1.0	7	4	8	-1%
O=C(CCN1C(=O)c2ccncc2C1=O)Nc1ccc(F)cc1	-1.5	-2	6	-8	-6%
CCCC12CN3CC(CCC)(CN(C1)C3C(O)C(O)C(O)CO)C2=O (stereo unspecified)	0.3	5	-9	-34	-6%	Arbovirus anti repeat=3
CCOc1ccccc1CNCC1CCCO1 (stereo unspecified)	-0.4	nt	-2	nt	nt
CCOC(=O)N1CCN(S(=O)(=O)c2ccc(OCC)c3ccccc23)CC1	6.7	-9	-4	-34	-2%
O=C1N/C(=N/N=C/c2ccc(F)cc2)SC1c1ccccc1 (stereo unspecified)	-2.3	nt	-6	nt	6%
CCOC(=O)c1c(-c2ccccc2)nc2c(C)cccn12	0.8	-14	10	35	1%
O=C(COC(=O)c1cccc(S(=O)(=O)N2CCN(c3ccccc3)CC2)c1)NCc1ccco1	2.9	13	-3	-15	0%
C=CCOC(=O)C1=C(C)Nc2nnnn2C1c1ccc(OC)cc1OC (stereo unspecified)	1.6	0	-6	7	8%
O=C1CCCCCN1Sc1ccccc1	-1.8	-2	37	-14	-3%
COc1ccc(-c2nc(Cn3c(SCc4ccc(C)cc4)nc4ccncc43)c(C)o2)cc1OC	3.8	-6	65	-19	6.5µM*
CCOc1ccccc1NC(=O)Cn1c(=O)c(OCC)nc2cnccc21	-1.4	nt	-7	nt	nt
CC(=O)OCC(=O)Nc1c(C)cccc1C	nt	-2	4	nt	2%
N#C/C(=C\c1cccs1)C(=O)c1ccccc1	0.4	nt	3	nt	0%
C/C(CC(=O)NCCN1CCOCC1)=N\NC(=O)c1ccncc1	3.7	nt	99	nt	?
Nc1ccc(S(=O)(=O)N2CCC(Cc3ccccc3)CC2)cc1	-0.6	nt	-3	nt	nt
O=C(NC1CCN(C(=S)Nc2ccccc2)CC1)C1CCCCC1	-2.2	nt	-10	nt	nt
O=C(NC1CCCCC1)N1CCc2ccccc21	-0.4	-1	-5	-13	-15%
O=C1CN(C(=O)c2ccccc2)C(c2ccc(F)cc2)c2cc(Br)ccc2N1 (stereo unspecified)	11	nt	6	nt	nt
CCc1nnc(NS(=O)(=O)c2ccc(NCc3ccccc3O)cc2)s1	0.6	nt	-6	nt	nt
O=C(CCCOc1ccc(Cl)cc1Cl)N1CCc2ccccc2C1	17	-11	1	-11	-5%
CCOC(=O)c1c(NC(=O)CSc2nnnn2-c2ccccc2OCC)sc2c1CC(C)(C)NC2(C)C	5.5	nt	61	nt	nt
COc1ccc(C2NC(=S)NC(C)=C2C(=O)Nc2ccccn2)cc1 (stereo unspecified)	1.1	-11	2	nt	-5%
Cc1ccnc2nc(C(=O)Nc3cc(Cl)ccc3N3CCOCC3)nn12	-1.1	2	-2	-35	-7%
Nc1ccc(C(=O)N/N=C\C=C\c2cccc([N+](=O)[O-])c2)cc1	0.2	-15	1	nt	1%
O=C(O)CN1C(=O)C2C3CC(C2C1=O)C1C(c2ccccc2)c2sc(=O)[nH]c2SC31 (stereo unspecified)	-6.6	0	0	-21	2%
OCC[C@@H]1C[C@H](O)[C@@H](O)[C@]2(CCCO2)O1	-2.0	nt	0	nt	-15%
Clc1ccccc1OCc1nnc(-c2ccccc2Br)o1	1.7	24	63	-17	17%
CCOc1ccc(C(=O)N(CN2CCCC2=O)c2ccccc2)cc1	-0.9	-4	9	-29	-6%
O=C(Cn1cnc2ccccc21)N1CCN(S(=O)(=O)c2ccccc2)CC1	-2.2	6	2	nt	0%
CCCN(Cc1cc2cc(C)ccc2[nH]c1=O)S(C)(=O)=O	-2.8	4	2	-43	-6%
Cc1cccc(CN2CCN(C(=O)CCc3nnc(C4CCCCC4)o3)CC2)c1	1.3	2	-12	nt	2%
COc1ccc(-c2nc3ncccn3c2Nc2ccccc2)cc1	-3.2	13	5	nt	nt
CN(C/N=C(\N)N[N+](=O)[O-])S(=O)(=O)c1ccccc1	0.3	2	-9	nt	0%
Cc1nn(CCCC(=O)NCCc2ccccc2)c(C)c1[N+](=O)[O-]	0.9	-2	-7	nt	10%
CCCCc1nc(C(N)=O)c2[nH]c(=O)n(-c3ccc(OC)cc3OC)c2n1	-1.4	nt	?	nt	nt
Oc1c(-c2cc(-c3ccco3)[nH]n2)ccc2ccccc12	12	16	47	7	5%

(next part)
SMILES	RecA splice inh	Arbovirus anti	Mtb betalactam	YopH PTP inh	Mtb H37Rv	others
Cc1ccc(NC(=O)NNC(=O)C2CCN(Cc3ccc(F)cc3Cl)CC2)cc1	-3.2	6	-5	nt	-6%
O=C(Nc1ccc(S(=O)(=O)N2CCCC2)cc1)c1ccc(CN2CCc3ccccc3C2)cc1	2.6	-27	88	11	44%
COc1ccc(CCNC(=O)CN2CCN(Cc3ccc(F)cc3)C2=O)cc1OC	-0.6	-1	-9	-53	-4%
CCn1c(=O)c2c3c(sc2n2cnnc12)CCC3	2.4	4	-3	-17	-4%
Cc1ccccc1NC(=O)CS(=O)(=O)c1cn(CC(=O)N2CCOCC2)c2ccccc12	0.4	6	-6	nt	1%
C=CCC(=O)NC1CC(C)(C)Cc2c1cnn2-c1ccccc1C (stereo unspecified)	2.6	nt	-2	nt	nt
Cc1[nH]c(C)c(S(=O)(=O)NCc2ccc(OC(C)C)cc2)c1C(=O)N1CCCC1	0.2	nt	?	nt	nt
COc1ccccc1NS(=O)(=O)c1cc(NC(=O)c2ccc(Cl)nc2)ccc1Cl	4.0	2	-1	-14	5%
Cc1noc(C)c1COc1ccccc1C(=O)NCc1ccccc1Cl	2.1	nt	10	nt	nt
Cc1ccc(CCNC(=O)c2ccc(CS(=O)(=O)Cc3ccccc3F)o2)cc1	1.4	-5	nt	-9	8%
Cc1ccccc1NS(=O)(=O)c1nnc(NC(=O)c2ccc(Cl)cc2)s1	-6.8	nt	-6	nt	nt
Cc1ccc(S(=O)(=O)NCC(=O)OCc2ccccc2Br)cc1	2.6	2	50	nt	48%
Cc1ccc(-n2cnc(=O)c3cccnc32)cc1	-0.7	-2	2	-17	9%
N#Cc1cccc(NC(=O)CSc2ccc3c4c(cccc24)C(=O)c2ccccc2-3)c1	-15	-20	-3	-6	-5%
Cc1cccc(C)c1NC(=O)C1(NC(=O)C2CCC(=O)N2)CCCCC1 (stereo unspecified)	1.3	5	2	-19	-11%
CN(c1ccccc1)S(=O)(=O)c1cccc(NC(=O)CSc2nncn2C)c1	0.1	1	1	-18	-2%
CCOC(=O)c1c(NC(=S)Nc2ccccc2C)sc2c1CCC2	nt	0	3	2	-2%
O=C(NCC1CCCO1)c1ccc(NS(=O)(=O)c2ccccc2)cc1 (stereo unspecified)	1.2	4	-6	nt	1%
CC(NC(=O)COC(=O)[C@@H]1CCCN1S(=O)(=O)c1ccccc1F)C12CC3CC(CC(C3)C1)C2 (stereo partly specified)	7.8	11	-3	-22	4%
